ugtP null kill = growth inhibition of ugtP-null S. aureus, primary screen, RN4220 ugtP deletion, OD600 | 16 h; some inactives read as strong as hits | hit rate 0.54% among 330,000 | growth inhibition, % (no concentration beside the values);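 active means z-score under -3 and OD600 up to 0.15 on both plates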;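 further: plate controls were untreated wells for no effect and antibiotic for full effect; wells of about 80 µL received 100 nL stock; the first replicate is given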
RN4220 kill = growth inhibition of S. aureus RN4220, primary screen, OD600 | hit rate 0.33% among 330,000 | inhibition, % (no concentration beside the values) | AID 1259311, 2017 | 16 h;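 active means z-score of -3 or lower and OD600 up to 0.18 on both plates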;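 further: plate controls were untreated cells for no effect and reference antibiotic for full effect; stock transfer was 100 nL into about 80 µL; one replicate is shown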
PrP 5UTR inh = inhibition of PrP 5' UTR reporter expression; cell-based PrP 5' UTR mRNA reporter, plate reader; inhibition, % (no concentration beside the values); hit rate 0.35% among 340,000;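 active means every replicate at 50% or more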;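 further: 0 = median of the neutral control wells; tested in H4 reporter cells; numbers are from one replicate; inactives centre near -14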
BJeLR viability = MLPCN primary cell-based screen for lethality selective to Ras in HRASV12 cells | hit rate 0.17% among 300,000 | inhibition, % (test concentration not listed) | BJeLR (HRASV12) viability, CellTiter-Glo ATP luminescence, 48 h; reference of the scale not given here;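 active means replicate mean above 50%; inconclusive means above 50% but judged a plate artefact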;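 further: 50 nL library stock added to about 25 µL; numbers are from one replicate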
Mtb hypoxia rep = PubChem AID 1159583. M. tuberculosis hypoxia-regulated fluorescent reporter, fluorescence. fluorescence inhibition, % (test concentration not listed). hit rate 0.1% among 300,000;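 active means 35 to 45% if threefold the growth effect, above 45% if 1.5-fold the growth effect; inactive means the rest, general growth blockers included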;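 further: wells of about 50 µL received 100 nL stock; 0% = vehicle wells and 100% = reference inhibitor wells; whole bacteria with a GFP reporter of the hypoxia response; strong numbers were not always called active; many hits fall short of the cut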
Autofluor counter = flagged as autofluorescent in microsphere protease counterscreen. compound autofluorescence counterscreen, microsphere flow cytometry; hits give high values. fluorescence intensity (concentration not given with the values). hit rate 3.1% among 360,000;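 active means at least 3 SD above the mean of all compounds, about 16000 in these data; inconclusive means too few beads counted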;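 further: 100 nL of 1 mM stock went into each well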
Mtb hypoxia rep growth = also measured in Mtb hypoxia rep; calls as there; growth inhibition, %; measured here: M. tuberculosis growth (absorbance);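 0% = vehicle and 100% = reference antibiotic; read after six days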
An asterisk follows results filed as active; ? = inconclusive; nt = no result given.

molecule	ugtP null kill	RN4220 kill	PrP 5UTR inh	BJeLR viability	Mtb hypoxia rep	Mtb hypoxia rep growth	Autofluor counter
O=C(c1cccc(F)c1)N1CCN=C1SCc1cccnc1	2	1.9	-22	-7	nt	nt	5075
CC(C)(C)c1ccc(/C=N/NC(=S)NCc2ccccc2)cc1	nt	nt	5	-2	nt	nt	1957
CCCCn1c(SCC(=O)Nc2cc(C)on2)nnc1-c1ccco1	-1	8.2	-15	-24	nt	nt	3276
CC(=O)N1CCN(S(=O)(=O)c2cccc(C(=O)NCCc3ccc(Cl)cc3)c2)CC1	0	-0.8	-17	-17	2	-4	?
CC1=NN(C(=O)COc2ccc(C)c(C)c2)C(O)(c2ccccc2)C1 (stereo unspecified)	-1	0.9	1	0	-1	4	1975
C/C(CC(=O)Nc1ccccn1)=N\NC(=O)c1cccc(C)c1	nt	nt	-18	-4	nt	nt	4230
COc1ccccc1N1C(=O)c2ccc(C(=O)Nc3ccc(F)cc3)cc2C1=O	3	3.5	-9	5	13	0	3179
Cc1cc(N(CC(=O)O)S(C)(=O)=O)ccc1Br	0	-9.3	-18	0	13	3	2448
CC(=NNC(=O)c1cccnc1)c1ccc(Br)cc1	-2	1.5	nt	nt	2	16	nt
CCOC(=O)c1ccccc1NS(=O)(=O)c1ccc(C)cc1	-7	-0.6	-38	-8	2	-15	3690
Cc1sc2ncnc(NCc3ccccc3)c2c1C	-7	-1.7	-36	13	3	8	2275
CC(C)Cn1c(SC(C)C(=O)NCC2CCCO2)nc2ccc(Cl)cc2c1=O (stereo unspecified)	18	2.9	-19	nt	6	-1	6370
Cc1ccc(NC(=O)C2c3ccccc3Oc3ccccc32)nc1	-1	-1.7	-17	-5	1	-4	4787
Oc1ccc(-c2[nH]ncc2-c2nc3ccccc3s2)c(O)c1	14	7.4	-28	-6	-7	0	2449
Cc1ccc(NP(=O)(Nc2ccc(C)cc2)Oc2ccccc2)cc1	1	-13	0	-8	-8	1	3960
CNc1nc(-c2c(C)n(C)c3ccc(OC)cc23)cs1	-2	2.0	-6	1	10	2	2719
COC(=O)c1scc(S(=O)(=O)C(C)(C)C)c1N	1	4.0	-7	-8	-7	1	5479
O=C1CCCC2C3CCCN4CCCC(CN12)C34 (stereo unspecified)	-6	8.3	4	-4	nt	nt	4113
Cc1ccc(C(C(=O)NC2CCCCC2)N(CC2CCCO2)C(=O)CCCC(=O)Nc2ccccn2)cc1 (stereo unspecified)	3	0.6	-9	-2	-10	-3	3876
O=C(Nc1ccccc1-c1ccccc1)NC1CCN(C(=O)N2CCOCC2)CC1	-3	-1.0	-3	-8	4	9	3991
COC(C[C@H]1O[C@H]1[C@H](O)[C@@H](C)OCc1ccccc1)OC	nt	nt	-1	10	nt	nt	4001
COc1cc(C(N)=O)cc(Cl)c1OCc1ccccc1	3	-0.8	-24	4	5	-2	2067
CC(C)(C)c1nnc(NN=Cc2ccccc2O)n(N)c1=O	-2	5.1	nt	nt	-4	-1	nt
O=C(C1=NN(c2ccccc2)C2C(=O)N(c3ccc(Cl)cc3)C(=O)C12)c1ccccc1 (stereo unspecified)	4	6.2	-15	nt	5	7	8571
Cc1ccc(N(C)S(=O)(=O)c2cccc(C(=O)NCC(c3ccco3)N3CCCC3)c2)cc1 (stereo unspecified)	9	6.3	2	nt	11	3	9786
Cc1ccc(F)cc1NC(=O)/C=C/c1ccc(S(=O)(=O)N2CCOCC2)cc1	4	0.2	-27	nt	4	6	3772
Cc1cccc(NC(=S)N2CCC(C(N)=O)(N3CCCCC3)CC2)c1C	1	0.7	5	3	-5	3	3207
O=C1CC(=O)Nc2cc(S(=O)(=O)Nc3cccc(C(F)(F)F)c3)ccc2N1	13	3.4	-17	10	8	6	5140
CCOC(=O)c1cnc(SC)nc1Oc1cccc(NC(=O)c2cccc(Cl)c2Cl)c1	-8	-3.4	-28	1	nt	nt	2365
CCn1cc(C(=O)OC)c(=O)c2cc(S(=O)(=O)N(C)C3CCCCC3)ccc21	8	1.9	-17	-1	3	2	4116
CN(C)S(=O)(=O)c1cc(NC(=O)[C@H](Cc2ccccc2)N2C(=O)c3ccccc3C2=O)ccc1Cl	nt	nt	-8	-2	nt	nt	2857
O=C1Nc2ccccc2C1=NN1CCCCCC1	-1	2.4	-9	nt	15	8	3563
Cc1ccc(OCc2cc(C(=O)N3CCN(C)C[C@@H]3c3ccccc3)no2)cc1C	7	1.3	-55	-2	4	1	5590
COc1ccc(C(=O)CSc2nnc(CN3CCCC3)n2-c2ccc(F)cc2)c(OC)c1	1	3.4	-31	3	-2	9	2755
O=C(OCC(=O)N1CCCC1=O)c1ccc(Cl)cc1[N+](=O)[O-]	-7	5.4	-15	8	9	3	5570
CCC(C(=O)NCc1ccco1)N(C(=O)CNS(=O)(=O)c1ccc(F)cc1)c1ccccc1F (stereo unspecified)	0	3.8	-3	-3	-3	12	5861
Cn1ncnc2c(=O)n(C)c(=O)nc1-2	39	15	96*	21	-10	0	7101
Cc1cccc(C(=O)NCC(c2ccco2)N2CCc3ccccc32)c1 (stereo unspecified)	6	0.8	-28	9	-2	-2	8214
CC=C(C)C(=O)Nc1cccc(C2=NOC3(C2)CC(C(N)=O)N(C(=O)c2ccc(OC)cc2)C3)c1 (stereo unspecified)	0	3.9	nt	nt	2	4	nt
CCC(C)(c1ccc(C=O)s1)c1ccc(C=O)s1	0	-4.5	-23	-5	0	6	7032
Cc1nc(C(C)NC(=O)c2cc(COc3ccc(C)c(C)c3)on2)c(C)s1 (stereo unspecified)	-1	1.6	-51	-3	-2	0	5277
CCN1C(=O)c2cccc3c(S(=O)(=O)NC(Cc4ccccc4)C(=O)O)ccc1c23 (stereo unspecified)	7	0.2	-14	-11	15	1	4848
COc1ccc(CNC(=O)C/C(C)=N/NC(=O)C(c2ccccc2)c2ccccc2)cc1	nt	nt	-11	-3	nt	nt	3549
Cn1c(SCC(=O)N/N=C/c2ccc([N+](=O)[O-])s2)nnc1-c1ccc(Cl)cc1	nt	nt	-21	-9	nt	nt	2096
COc1ccc(C(C)=O)c2c(O)cccc12	-13	5.4	-2	-16	8	-5	2530
CCCn1cc(CN2CCC(C(=O)Nc3cccc(-c4cscn4)c3)CC2)c(C)n1	-1	-3.2	-5	3	-4	-4	4364
CCOc1ccccc1C(=O)NN=Cc1ccoc1	-2	-0.8	nt	nt	0	5	nt
O=C(Nc1ccc2c3c(cccc13)CC2)c1cccc([N+](=O)[O-])c1	0	10	-15	-12	3	4	2486

Next section (6 carried over from the part before).
molecule	ugtP null kill	RN4220 kill	PrP 5UTR inh	BJeLR viability	Mtb hypoxia rep	Mtb hypoxia rep growth	Autofluor counter
COc1ccc(CNC(=O)C/C(C)=N/NC(=O)C(c2ccccc2)c2ccccc2)cc1	nt	nt	-11	-3	nt	nt	3549
Cn1c(SCC(=O)N/N=C/c2ccc([N+](=O)[O-])s2)nnc1-c1ccc(Cl)cc1	nt	nt	-21	-9	nt	nt	2096
COc1ccc(C(C)=O)c2c(O)cccc12	-13	5.4	-2	-16	8	-5	2530
CCCn1cc(CN2CCC(C(=O)Nc3cccc(-c4cscn4)c3)CC2)c(C)n1	-1	-3.2	-5	3	-4	-4	4364
CCOc1ccccc1C(=O)NN=Cc1ccoc1	-2	-0.8	nt	nt	0	5	nt
O=C(Nc1ccc2c3c(cccc13)CC2)c1cccc([N+](=O)[O-])c1	0	10	-15	-12	3	4	2486
CCCCc1ccc(NS(=O)(=O)c2cccs2)cc1	-3	1.7	-1	3	-1	9	10945
Cc1nnc2ccc(-c3ccc(NS(=O)(=O)c4ccc(F)cc4F)cc3)nn12	11	5.5	-12	4	15	8	6091
C=CCNC(=O)NC(=O)COC(=O)c1nc2nccc(C)n2n1	8	5.4	-20	1	-2	2	2403
COc1ccc(NC(=O)C(=O)NCCN2CCN(C(=O)c3ccco3)CC2)cc1	7	1.5	-14	-18	5	-4	4307
CN(Cc1nccs1)C(=O)CC1C(=O)NCCN1Cc1ccc(-c2ccccc2)cc1 (stereo unspecified)	7	8.3	-1	3	5	9	3396
O=C(CSc1ccc(C(F)(F)F)cc1[N+](=O)[O-])N1CCOCC1	0	0.3	-8	-5	11	-1	nt
CN1/C(=C\C(=O)COC(=O)c2nccnc2N)C(C)(C)c2ccccc21	3	1.3	-11	5	-1	1	nt
CC(C)NC(=O)c1ccc2c3n(nc2c1)-c1ccccc1CO3	-3	8.7	16	17	12	7	4041
CCc1ccc(C(C)=NNC(=O)CNC(=O)/C=C/c2ccccc2OC)cc1	-10	1.2	nt	nt	3	-4	nt
Cc1ccc(CN2CCN(N=Cc3cccnc3)CC2)c(C)c1	10	2.4	nt	nt	3	10	nt
COc1ccccc1-c1nn(Cc2ccccc2)cc1C(=O)NCC(c1ccco1)N1CCCC1 (stereo unspecified)	2	2.1	-11	nt	-10	-13	3926
O=C(Nc1ccc(Cl)cc1F)c1cc(S(=O)(=O)N2CCCCC2)ccc1F	0	5.7	-21	13	5	6	2572
CCOC(=O)Cn1c(=O)oc2ccc(C)cc21	3	5.0	-27	3	0	0	3948
Cn1c(N)c(C#N)c2c(c1=S)CSC(C)(C)C2	4	-0.1	-9	0	0	9	3841
CCOC(=O)N1CCN(C(=O)c2ccc3c(=O)n(CCc4ccc(OC)c(OC)c4)c(=O)[nH]c3c2)CC1	3	1.8	3	-1	8	-3	4584
NS(=O)(=O)c1ccc(CCNc2nc(CN3CCCCC3)nc3sc4c(c23)CCC4)cc1	1	2.1	-16	8	4	5	21682*
CN1C(=O)N(CC(=O)Nc2sccc2C(N)=O)C(=O)C12CCCCC2	2	1.8	-22	nt	0	-7	8651
Clc1ccc(CN2CCN(N=Cc3cccnc3)CC2)cc1	3	16	nt	nt	5	14	nt
CC(NC(=O)c1ccccc1Br)c1nnc(SCC(=O)NC2CCCCC2)n1C (stereo unspecified)	11	2.7	-16	4	8	5	2845
CCOC(=O)[C@@H]1[C@H]2COc3cc(OC)ccc3[C@@H]2N2C(=O)N(c3ccc(Cl)cc3)C(=O)[C@]12C	nt	nt	-7	0	nt	nt	3961

A section of the results above, as a working copy:
molecule	ugtP null kill	RN4220 kill	PrP 5UTR inh	BJeLR viability	Mtb hypoxia rep	Mtb hypoxia rep growth	Autofluor counter
CC(NC(=O)c1ccccc1Br)c1nnc(SCC(=O)NC2CCCCC2)n1C (stereo unspecified)	11	2.7	-16	4	8	5	2845
CCOC(=O)[C@@H]1[C@H]2COc3cc(OC)ccc3[C@@H]2N2C(=O)N(c3ccc(Cl)cc3)C(=O)[C@]12C	nt	nt	-7	0	nt	nt	3961

Screening data as filed in PubChem BioAssay.
